AID504770 – growth inhibitors of E. coli YBA685 in a screen for V. cholerae RctB (chromosome II replication) inhibitors | 130,000 compounds, 0.27% hits | AID 504770 | z-score (test concentration not listed) | E. coli YBA685 rctB-dependent plasmid, OD600 growth, 3 h; stronger effect = lower value;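 active = z-score under -2 on both plates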;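 also: wells of about 30 µL received 100 nL stock; score is relative to mean and SD of the test wells; the first replicate is given; strong numbers were not always called active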
Ba CapD inh – blocks the Bacillus anthracis CapD enzyme | purified CapD enzyme, fluorescence intensity read-out; stronger effect = lower value; some hits fall short of the stated cut | z-score (concentration not given with the values) | 140,000 compounds, 0.23% hits | AID 492967;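 active = z-score under -4 in either of two replicates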;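 also: stock transfer was 100 nL into about 40 µL; score is relative to mean and spread of the plate; one replicate is shown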
An asterisk follows results filed as active; nt = not tested or not shown; & = joins results of further samples.

SMILES,Ba CapD inh,AID504770
O=C(c1ccccc1)N(Cc1nc2ccccc2c(=O)[nH]1)C1CCCC1,nt,-0.75
CC1CCCN(C(=O)Cc2noc3ccccc23)C1 (stereo unspecified),-0.26,0.35
Cn1c(-c2ccccc2O)n[nH]c1=S,-0.005&0.025,0.4
C=CCNC1(C)CCS(=O)(=O)C1 (stereo unspecified),-1.2,2.2
C=C(C)CSc1nc2sc3c(c2c(=O)n1CC(=C)C)CC(C)(C)OC3,6.8,nt
OCc1nc(-c2ccc(C(F)(F)F)cc2)cs1,0.3,0.1
CCCN(CC1CC1)C(=S)Nc1ccccc1OC,0.47,0.55
CCNc1nc(NCC)n2c(SCC(=O)NC34CC5CC(CC(C5)C3)C4)nnc2n1,nt,-0.35
CCNC(=O)Nc1n[nH]c(-c2ccccc2)n1,nt,0.05
Cc1ccccc1C(=O)NC1CCN(Cc2nnnn2C2CCCC2)CC1,nt,2.1
COc1ccc(C2C(C#N)=C(N)SC3C(=O)N(c4ccc(C)cc4)C(=O)C32)cc1 (stereo unspecified),0.24,-0.55
O=C(O)/C=C/c1cccc(NC(=O)c2ccccc2)c1,0.27,-0.4
Cc1cccn2c(=O)c3cc(C(=O)N4CC(C)OC(C)C4)n(C)c3nc12 (stereo unspecified),26,-0.5
O=C(CCc1nc2ccccc2[nH]1)N1CCC(Cc2ccccc2)CC1,-0.59,-0.25
Cc1nc(C(F)(F)F)c(C(=O)NC(=O)Nc2cccc(C(F)(F)F)c2)s1,-0.04,nt
CN(C)n1cccc1C=N/C(C#N)=C(\N)C#N,-0.38,2.3
O=C(Cc1nc2ccccc2s1)c1ccccc1,0.01,-1.1
Cc1cc(SCc2[nH]nc3oc(=O)cc(C)c23)c(C)cc1Cl,0.055,0.05
Cc1ccc(CSc2ccccc2-c2nnc(-c3ccc(Cl)cc3)o2)cc1,-0.03,nt
OC(C#Cc1ccccc1)c1cccs1 (stereo unspecified),0.35,0.4
Cc1cc(OCc2c(C)c(C)c(C)c(C)c2C)ccc1Cl,0.27,nt
CC(C)Sc1nnc(NC(=O)c2ccc3ccccc3c2)s1,11,0.05
COc1ccc(C(=O)NCCSc2ccc(Br)cc2)cc1,0.14,nt
O=[N+]([O-])c1ccc(N2CCN(c3ncnc4sc5c(c34)CCCC5)CC2)cc1,-0.42,nt
C1=C(C23CC4CC(CC(C4)C2)C3)SC2=NCCN12,nt,0.2
COc1ccc(C(=O)N=S2CCN(S(=O)(=O)c3ccc(Cl)cc3)CC2)cc1,-0.34,0.35
COc1cc2c(C(=O)N3CCN(c4ccccc4C)CC3)c(C)oc2cc1Br,0.82,1.4
CC(C)(C)c1ccc(-c2noc(C(=O)NN)n2)cc1,-0.64,-0.25
CCOC(=O)c1c(NC(=O)c2ccc(C)c([N+](=O)[O-])c2)sc(C(=O)Nc2ccc(C)c(Cl)c2)c1C,-0.72,nt
O=C1CC2CCC(CN1)N2CC(=O)Nc1ccc(F)cc1 (stereo unspecified),nt,1.3
CN=C(Nc1ccc(C(=O)OC)s1)c1ccccc1,nt,0.2
Cc1cc(C(=O)Nc2cccc(C(F)(F)F)c2)no1,0.24,0.4
CN(Cc1ccccc1)C(=O)c1cc(-c2ccccc2)n[nH]1,0.29,0.6
FC(F)(F)c1ccc(Cl)c(N=NN2CCOCC2)c1,-1.3,-0.55
O=C1CCCc2c1c1ccccc1n2Cc1ccccc1,0.52,nt
Cc1cc(CNC(=O)NCc2ccco2)c(C)n1-c1ccc(F)cc1,1.2,-0.05
CCN1C(=O)CCS(=O)(=O)c2ccccc21,-0.56,2.1
CCN1C(=O)/C(=C\c2cc(C)n(CC(F)(F)F)c2C)SC1=S,-0.1,-0.3
OC1COC(Oc2ccccc2)C(O)C1O (stereo unspecified),0.32,-0.1
Cc1cc(-c2cn(/N=C/c3ccc(Cl)cc3Cl)c(N)n2)c(C)s1,-0.13,0
CCCCCn1c(C)c(CC(Cl)(Cl)Cl)c2c1CC(C)(C)CC2=O,-0.41,nt
COc1ccc(C(=O)N/N=C/c2ccc(CO)o2)cc1,-0.61,nt
CCc1cccc(O[C@@H]2O[C@@H]3COC(c4ccccc4)O[C@H]3[C@H](O)[C@H]2NC(C)=O)c1 (stereo partly specified),-0.73,-0.8
CCOC(=O)c1cnc2c(C)c(Cl)ccc2c1NCCN(C)C,0.29,-1.1
O=C(Nc1ccc(OC(F)(F)F)cc1)c1n[nH]c(Cn2cncn2)n1,-0.015,nt
Cc1ccc2[nH]c(=O)c3cc(C(=O)NCCCN4CCN(c5ccc(F)cc5)CC4)sc3c2c1,-0.14,1.6
CCNC(=S)N1CCn2cccc2C1c1cccnc1 (stereo unspecified),2.6,-0.2
O=C(Nc1ccccc1C(=O)OCn1nnc2ccccc2c1=O)c1ccco1,nt,0
O=C1C2=C(C(c3ccccc3)=NCCN2)C(c2ccc(Cl)cc2Cl)N1c1ccccc1 (stereo unspecified),2.9,nt
COC(=O)c1ccc(CO/N=C/c2ccc(OC)cc2)o1,nt,-1.4
Nc1ccccc1C12CC3CC(CC(C3)C1)C2,-0.9,-0.3
O=C1/C(=C/c2ccccn2)CC(c2ccccc2)C/C1=C\c1ccccn1 (stereo unspecified),14,-0.05
CCn1c(=O)c2c(n(Cc3ccccc3)c1=O)NC1=C(C(=O)CCC1)C2c1ccc(OC)cc1 (stereo unspecified),nt,-0.6
CCCCC(=O)c1c(O)c2ccccc2oc1=O,-0.54,2.6
CCc1ccc(NC(=O)C(C)Sc2ncnc3ccccc23)cc1 (stereo unspecified),1.1,0.45
O=C(Nc1ccc(S(=O)(=O)Nc2ncccn2)cc1)C1CC(=O)N(c2ccccc2)C1 (stereo unspecified),nt,-0.85
COc1ccccc1C1OC(=O)C[C@@H]1C(=O)Nc1nncs1 (stereo partly specified),0.56,0.05
COc1ccc(CNc2ccccn2)cc1,3,nt
CC(C)(C)SC(C(=O)N1CCOCC1)c1ccc(Br)cc1 (stereo unspecified),0.18,0.1
CN(C)Cc1ccc(CNCc2cnn(-c3ccccc3)n2)cc1,nt,-0.8

New compounds follow.
SMILES,Ba CapD inh,AID504770
CCN(CC)CCNC(=O)c1cc(Br)c(N)cc1OC,-1.7&0.71,0.55
COc1ccc(NC(=O)c2ccccc2C(F)(F)F)cc1OC1CCCC1,-0.72,-1.1
CCn1cc(C(=O)N2CCCCC2C)c(=O)c2ccc(C)nc21 (stereo unspecified),nt,-0.45
c1cc2nc3c(nc2c2nonc12)CCCC3,-0.39,-0.45
Cc1cccc(C(=O)OC(C)CN2C(C)CCCC2C)c1 (stereo unspecified),-0.15,-0.75
CCn1ncc(C2=NOC(C(=O)NCc3ccccc3)C2)c1C (stereo unspecified),-0.86,1.1
COc1cc(OC)cc(C(=O)c2c(C)c(C#N)c3ccccn23)c1,-0.35,0.95
c1cnc2c(CN3CCCCCC3)cccc2c1,0.72,-0.75
CCOc1cc(/C=C2\SC(=O)NC2=O)ccc1OC(=O)c1cccc([N+](=O)[O-])c1,-0.61,nt
O=C(NC1CC1)c1cc(F)cc2c1OCOC2,5.6,-0.35
O=C(Nc1ccn(C2CC(OC(=O)c3ccccc3)C(CO)O2)c(=O)n1)c1ccccc1 (stereo unspecified),0.14,-0.05
Cc1ccc(C)c(N(CC(=O)Nc2ccccc2)S(C)(=O)=O)c1,nt,-0.25
NC(=O)c1ccc(S(N)(=O)=O)o1,nt,-0.2
Cc1ccn2c(=O)c(C(=O)O)cnc2c1,125,-0.1
COc1ccc(-c2csc(=Nc3ccc(OC(F)(F)F)cc3)n2CCc2ccc(S(N)(=O)=O)cc2)cc1F,-0.29,nt
C#CCOc1c(Br)cc(/C=N/O)cc1OCC,-0.12,1.5
CC1=CC(=O)N(c2ccn(C)n2)C1=O,0.84,-0.2
CCNC(=O)/C=C/c1cccc(OC)c1OC,nt,-0.2
COc1ccc(N2C(=O)C(N3C(=O)c4ccccc4C3=O)C2c2ccc(F)cc2)c(OC)c1 (stereo unspecified),-0.02,nt
O=C(NCc1ccccn1)c1cccnc1SCCS(=O)(=O)c1ccc(C(F)(F)F)cn1,0.21,-1

Whole records from above. Values in the order: Ba CapD inh	AID504770
CCOc1cc(/C=C2\SC(=O)NC2=O)ccc1OC(=O)c1cccc([N+](=O)[O-])c1 as listed: -0.61	nt
C#CCOc1c(Br)cc(/C=N/O)cc1OCC as listed: -0.12	1.5
NC(=O)c1ccc(S(N)(=O)=O)o1 as listed: nt	-0.2
O=C(Nc1ccn(C2CC(OC(=O)c3ccccc3)C(CO)O2)c(=O)n1)c1ccccc1 (stereo unspecified) as listed: 0.14	-0.05
Cc1cccc(C(=O)OC(C)CN2C(C)CCCC2C)c1 (stereo unspecified) as listed: -0.15	-0.75

Next part
SMILES,Ba CapD inh,AID504770
COc1cccc(C2CC(c3ccc(Br)cc3)=NN2C(=O)c2ccc(Br)o2)c1OC (stereo unspecified),1.2,nt
O=c1[nH]cc(NCCO)c(=O)[nH]1,0.34,0.65
Clc1ccc(Nc2nnc3c4ccccc4c4ccccc4c3n2)cc1,0.86,0.2
Cn1ncc2c(NNS(=O)(=O)c3ccccc3)ncnc21,0.29,1
O=C(O)CSCC(=O)N1CCN(C2c3ccccc3-c3ccccc32)CC1,0.43,-0.2
Cc1cccc(C)c1NC(=O)c1ccc(CN2CCCCC2)cc1,-0.58,-0.8
COc1cc(-c2nc3ccccc3c(=O)n2Cc2cccc(F)c2)cc(OC)c1OC,5,nt
Cc1c(NC(=O)C(C)OC(=O)c2cccc(S(=O)(=O)N3CCCC3)c2)c(=O)n(-c2ccccc2)n1C (stereo unspecified),nt,-2.7
COc1ccc2cc(C3CC(c4ccc(OC)c(OC)c4)=NN3C(=O)c3ccco3)c(Cl)nc2c1 (stereo unspecified),-0.17,-0.15
COc1ccc2oc(C(=O)OCc3ccc(OC)c(F)c3)c(C)c2c1,nt,0.65
COCCN(CCCN1CCc2ccccc21)C(=O)C(C)(C)C,1.6,nt
CCc1nnc(NS(=O)(=O)c2ccc(NC(=O)c3cc4cc(OC)ccc4oc3=O)cc2)s1,-0.24,nt
Cn1c(C(=O)NCCC2=CCCCC2)cc2c(=O)n(C)c3ccccc3c21,-0.73,0.5
Cc1csc(C(C#N)C(=O)CSc2cc(C)c3ccccc3n2)n1 (stereo unspecified),nt,-0.2
CCCCN(c1ccccc1)S(=O)(=O)c1ccc(F)cc1F,nt,-0.15
Cc1cc(C)c(C#N)c(SCCS(=O)(=O)Cc2ccc(Cl)cc2)n1,-0.52,0.25
COCC1=NN(c2ccccc2)C(=O)C1,0.4,0.85
O=C(Nc1ccc2cn[nH]c2c1)c1cc(=O)c2ccccc2o1,0.075,-0.2
Cc1cccc(-n2cc(-c3ccccc3)c3c(NCCc4ccc(S(N)(=O)=O)cc4)ncnc32)c1,0.55,nt
O=C(Nc1n[nH]c(-c2nc(NC(=O)C(F)(F)F)n[nH]2)n1)C(F)(F)F,-1.2,nt
c1ccc(OCCn2c3ccccc3c3nc4ccccc4nc32)cc1,-0.41,-0.45
Cc1nn(Cc2ccccc2Cl)c(C)c1C(=O)NCc1cccs1,nt,-0.45
COc1cc(OC)cc(OC(=O)C2=COCCO2)c1,nt,0.15
Oc1ccccc1C1OCC2(CO1)COC(c1ccccc1O)OC2 (stereo unspecified),0.095,-0.45
CCCS(=O)(=O)N1CCC(C(=O)NCCc2ccccc2)CC1,0.26,-1.3
C=CCn1c2ccccc2c2nnc(SCC(=O)Nc3nc(Nc4ccc([N+](=O)[O-])cc4)cs3)nc21,0.5,nt
CCC(C)NC(=O)CSC1=N/C(=C/c2ccc(OC)cc2)C(=O)N1Cc1ccco1 (stereo unspecified),nt,-0.8
CC(=O)Nc1ccc2c(c1)C1C=CCC1C(c1ccccc1F)N2 (stereo unspecified),3.6,nt
Clc1ccc(/C=N/NCc2cn3ccsc3n2)cc1,nt,0.4
Cc1cc(-n2nc3ccc(Cl)cc3n2)c(O)c(C(C)(C)C)c1,0.15,0.6
CCOC(=O)c1c(C)oc(N)c1C#N,0.78,0.35
N#CC1=Cc2ccccc2C2NN3C(C#N)=Cc4ccccc4C3NN12 (stereo unspecified),-0.87,-0.3
O=C(OCC(=O)c1ccccc1)/C(=C/c1cccs1)c1cccs1,nt,-0.8
CCN(CC)c1ccc2c(C)c(CO)c(=O)oc2c1,55,0.5
C=CCn1c(C(F)(F)F)nc2ccccc21,nt,-0.5
CNC(=O)c1c(NC(=O)Cc2coc3cc(C)ccc23)sc2c1CCCC2,0.2,-0.3
Cc1c(/C=C2\SC(c3ccccc3)=NC2=O)c(=O)n(-c2ccccc2)n1C,-0.42,-0.35
CN1CCC(N(C)C(=O)c2cc(-c3ccco3)nc3ccccc23)CC1,101,1.4
CCCn1c2ccccc2c2nnc(SCCNS(=O)(=O)c3ccccc3)nc21,-1.4,2
N#Cc1c(NC(=O)C(F)(F)F)oc(-c2ccccc2)c1-c1ccccc1,nt,-0.5
CC(CNC(=O)CCC(=O)Nc1ccc(Br)cn1)c1ccc(Cl)cc1 (stereo unspecified),-0.29,nt
O=C(Nc1ccccc1)N1CCCN(c2nc3ccc(Cl)cc3s2)CC1,1.1,-0.55
CCN(CC)C(=O)Cn1c(S(=O)(=O)CC)nc2ccccc21,-0.12,-1.4

Compound activity deposited in PubChem BioAssay by ICCB-Longwood Screening Facility, Harvard Medical School.
